# NPYLR7 agonist = activates Aedes aegypti NPYLR7 receptor. HEK293T NPYLR7/Galpha15, GCaMP6s calcium fluorescence. activation, % at 10 µM. 270,000 compounds, 0.15% hits; in the data active = activation above about 40%;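 note: 0% = vehicle and 100% = reference agonist at the receptor; some compounds past the cut are filed as inactive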
# NPYLR7 agonist max-min = also measured in NPYLR7 agonist; calls as there; activation, %; measured here: Max-Min RFU normalised activation; some inactives read as strong as hits;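 span of the calcium signal over five minutes; 0% = vehicle and 100% = native peptide agonist; compound fluorescence can raise it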
# An asterisk follows results filed as active; & = joins results of further samples.
SMILES,NPYLR7 agonist,NPYLR7 agonist max-min
CCn1c(C)cc(O)c(C(c2cccc(O)c2)c2c(O)cc(C)n(CC)c2=O)c1=O,4.5,6.2
COCCC(=O)N1CCC(Oc2ccc(C(=O)NCc3ccncc3C)cc2)CC1,-2.4,-5.7
CN(C(=O)C1CCN(c2nc(-c3ccccc3)nc3c2CCC3)CC1)C1CCOC1 (stereo not given),-4.1,-6.8
O=C(NC1CC2CCC1O2)c1sccc1C1CC1 (stereo not given),1.6&6.5,-1.1&4.3
Nc1nnc(COc2ccc(Br)cc2)s1,-3.0,-3.6
C=CCn1c(SCC(=O)Nc2nc(C)c(C)s2)nnc1-c1ccccc1,31.5,27.1
O=C(CSc1nnc(-c2ccccc2)n1-c1ccccc1)N/N=C\c1ccccc1F,-2.9,-6.1
CC(C)CCN(CC(=O)N1CCc2sccc2C1COc1cccc(F)c1)C(=O)Nc1cccc(Cl)c1 (stereo not given),-4.3,-5.1
COc1ccc(CCN(C)C(=O)CC(c2cccc3c2OCO3)c2c[nH]c3ccccc23)cc1OC (stereo not given),-1.2,0.8
Nc1nc(CSC2=NCCS2)nc2ccccc12,2.4,0.7
O=C(Cn1cnc2sc3c(c2c1=O)CCCC3)NCC1CCCO1 (stereo not given),3.7,8.2
COc1ccccc1OC1CCN(c2nc3nonc3nc2N2CCOCC2)CC1,1.8&3.6,-1.1&0.1
CCC(C)NC(=O)CCN(Cc1ccco1)c1nc(-c2ccccc2Cl)nc2ccccc12 (stereo not given),-1.1,7.9
Cc1noc(C)c1S(=O)(=O)NC(=O)C1(C)CCN1C(=O)Cc1ccc(-c2ccccc2)cc1 (stereo not given),-1.5,-4.3
Cc1c(C(=O)O)oc2cc3c(cc12)CCC3,-0.8,-5.8
Cc1cc(OCC(=O)NNC(=O)COc2ccc(Cl)cc2)cc(C)c1Cl,9.5,8.6
CC1CCC2(CC1)NC(=O)N(NC(=O)c1ccc3c(c1)C(=O)N(CC1CCCO1)C3=O)C2=O (stereo not given),0.5,12.1
CCCCNC(=O)CSc1nc2c(-c3ccccc3)c[nH]c2c(=O)n1C1CC1,-3.4,-10.1
CN1CCN(n2ccc3nc4ncnn4c(-c4ccc(Cl)cc4)c3c2=O)CC1,-10.7,-16.8
COc1ccc(S(=O)(=O)N2CCC(Cc3ccccc3)CC2)cc1N1CCN(S(=O)(=O)c2ccc(NC(C)=O)cc2)CC1,15.3,24.1
Cc1ccc(S(=O)(=O)N(C)c2cc(S(=O)(=O)N(C)CCCC(=O)O)c(C)cc2C)cc1,3.8,2.1
O=C(NNc1ccc(Br)cc1Cl)Nc1nncs1,2.5,1.6
CCCn1cnnc1CNC(=O)CC1C(=O)Nc2c(C)cc(C)cc21 (stereo not given),7.3,-5.0
O=C(C1=COCCC1)N1CCN(CCOc2ccc3c(c2)CCC3)CC1,3.2,1.8
COc1cc(OC)cc(C(=O)N2CCC[C@@H]2C(=O)NCCNC(=O)c2ccccc2)c1,2.1,14.2

# Next section (five carried over from the part before).
SMILES,NPYLR7 agonist,NPYLR7 agonist max-min
Cc1ccc(S(=O)(=O)N(C)c2cc(S(=O)(=O)N(C)CCCC(=O)O)c(C)cc2C)cc1,3.8,2.1
O=C(NNc1ccc(Br)cc1Cl)Nc1nncs1,2.5,1.6
CCCn1cnnc1CNC(=O)CC1C(=O)Nc2c(C)cc(C)cc21 (stereo not given),7.3,-5.0
O=C(C1=COCCC1)N1CCN(CCOc2ccc3c(c2)CCC3)CC1,3.2,1.8
COc1cc(OC)cc(C(=O)N2CCC[C@@H]2C(=O)NCCNC(=O)c2ccccc2)c1,2.1,14.2
c1ccc(-c2cc(N3CCCCCCCC3)n3ncnc3n2)cc1,-7.0,-7.8
Cc1cc(C(=O)N2C[C@@H]3[C@H](C2)[C@H]2CC[C@@H]3O2)c2c(C)nn(C)c2n1,5.7,1.1
CC(C)(C)c1ncc(NC(=O)N2CCCC2Cc2ccccc2)cn1 (stereo not given),1.0,-0.2
N#Cc1ccc(Cl)cc1N=CCc1nnnn1-c1ccc2ccccc2c1,8.0,13.6
Nc1ccccc1OCCOCCOc1ccccc1N,-1.6,-3.9
Cc1sc2nc(C(C)C)nc(N3CCN(C(=O)Nc4ccc(F)c(Cl)c4)CC3)c2c1C,14.7,13.7
COC(=O)NC(C)c1cc(C)ccc1C (stereo not given),4.5,2.8
O=C(C(Br)=CNc1ccccn1)C(F)(F)F,2.0,0.2
O=C(NCc1ccncc1)C1COC2(CCCCC2)N1C(=O)c1ccccc1C(F)(F)F (stereo not given),5.6,14.0
CCOC(=O)c1ccc2c(c1)nc(SCc1ccccc1OC)n2Cc1cccc(F)c1,8.3,0.5
CNc1ccc(-c2cccc(C(=O)NCCO)c2)cn1,-1.2,-3.9
CC=CCn1c(=O)c2c(nc3n2CCCN3c2ccc(OC)c(Cl)c2)n(C)c1=O,17.0,12.6
Cc1cnccc1NCCn1cc(-c2ccc3c(c2)OCCO3)nn1,-5.1,-5.4
Cc1n[nH]c(C)c1Cc1nc(C2(c3ccc(F)cc3)CCOC2)no1 (stereo not given),8.3,6.2
CNc1oc(-c2ccc(COc3ccccc3C)o2)nc1C#N,-0.8,30.8
O=[N+]([O-])c1cnc(Nc2cccc(O)c2)c([N+](=O)[O-])c1,-3.3,-3.8
CCOC(=O)c1nn(-c2ccc(C)cc2)c(=N)s1,-8.8,-13.3
Nc1cc(-c2ccc(Cl)c(Cl)c2)ncn1,-3.7,-0.8
CCOC(=O)c1[nH]ncc1CN(C)C1CCCN(C2Cc3ccccc3C2)C1 (stereo not given),-0.8,-1.6
CC(=O)Nc1cccc(NC(=S)NC(NC(=O)C(C)(C)C)C(Cl)(Cl)Cl)c1 (stereo not given),0.5,0.1
O=C(NCc1nnc2n1CCC2)C1=Cc2cc(Br)ccc2OC1,4.2,1.5
CC(Cn1cncn1)NS(=O)(=O)CC12CCC(CC1=O)C2(C)C (stereo not given),6.3,4.4
O=C(CCc1c[nH]c2ccccc12)OCC(=O)c1cccc([N+](=O)[O-])c1,4.3,1.8
CCOC(=O)c1nc2ccccc2nc1N1CCN(S(C)(=O)=O)CC1,11.6,1.4
COC(=O)CNC(=O)c1cc2c(C)nn(-c3ccc(F)cc3)c2s1,17.7,14.8
SMILES,NPYLR7 agonist,NPYLR7 agonist max-min
N#CCCCOc1ccc(Cl)cc1,-2.1,-3.2
Cc1[nH]c(-c2ccccc2)nc1C(=O)N1CCC(O)(CO)CC1,-2.3,-4.5
Cc1c(C(=O)NCc2ccc([N+](=O)[O-])cc2)sc(=O)n1Cc1cccc(C(F)(F)F)c1,0.3,-1.5
CCCS(=O)(=O)NCc1cccnc1Oc1cccc(C(F)(F)F)c1,5.3,1.1
CCOC(=O)N1CCC2(CC1)c1c(C)nn(-c3ccc(C)cc3)c1OC(=N)C2C#N (stereo not given),1.0,0.8
CC1(C)OC(=O)C(=CNc2ccc3ccccc3c2)C(=O)O1,9.9,11.8
Nc1cc(N2CC[C@@H](N3CCN(c4ccccc4F)CC3)[C@H](O)C2)ncn1,11.9,7.0
CN(Cc1ccccc1)c1nc2c(c(=O)n(C)c(=O)n2C)n1CCSc1nc2ccccc2s1,-0.3,5.4
CC(C)n1nnnc1SCCS(=O)(=O)c1cc(Cl)ccc1Cl,5.5,3.3
CCCCOc1ccc(S(=O)(=O)NCCn2ncccc2=O)cc1,1.0,0.2
O=C(Nc1ccc(Cl)cc1Cl)N1CCSC1c1ccc(OCc2ccccc2)cc1 (stereo not given),17.8,16.0
CNC(=O)c1cc(Nc2nnc(C)c3ccccc23)ccc1OC,15.4,7.1
C=CCn1c(=NC(=O)c2ccc(N3C(=O)CCC3=O)cc2)sc2cc(C(=O)OCC)ccc21,6.6,3.2
CCCCCCCC(=O)Nc1c(-c2ccc(C)cc2)nc2ccccn12,-3.5,0.5
CCC(CNS(C)(=O)=O)Oc1ccccc1C (stereo not given),-11.0,-15.3
Cc1cc(C)n(C2CCN(Cc3cccn3S(=O)(=O)c3ccccc3)C2)n1 (stereo not given),2.8,1.4
COc1cccc(-c2ccc(C(=O)NCc3noc(C(C)C)n3)cn2)c1F,23.9,17.1
CC(Cc1cnccn1)Nc1nc(CCN)nc2ccccc12 (stereo not given),13.9,10.0
CC1CN(c2ccc(NC(=O)c3ccc4n[nH]nc4c3)cc2)CC(C)O1 (stereo not given),12.5,10.7
COc1ccccc1/C=C/CN1CCC(n2nccc2NC(=O)c2ccccc2Cl)CC1,16.0,5.4
CN(Cc1ccc(-c2ccc(Cl)cc2)o1)C(=O)CNC(=O)c1ccccc1,9.9,8.3
O=[N+]([O-])c1ccc(-n2c(SCc3ccc(F)cc3)nnc2C(Cc2ccccc2)NS(=O)(=O)c2ccc(F)cc2)cc1 (stereo not given),-4.4,-1.6
NC(=O)CN1CC=C(CNC(=O)CCc2ccccc2)CC1,3.3,0.9
COc1cc2c(cc1CN(Cc1nccn1C)C1CC1)CCC2,-1.4,4.3
CCc1nc2ccc(C(=O)NCCCn3ccnc3)cn2c1N(CCN(C)C)CC1CC1,-6.3,-9.9

# Part of the list above, tab-delimited.
structure	NPYLR7 agonist	NPYLR7 agonist max-min
CCC(CNS(C)(=O)=O)Oc1ccccc1C (stereo not given)	-11.0	-15.3
Cc1cc(C)n(C2CCN(Cc3cccn3S(=O)(=O)c3ccccc3)C2)n1 (stereo not given)	2.8	1.4
COc1cccc(-c2ccc(C(=O)NCc3noc(C(C)C)n3)cn2)c1F	23.9	17.1

# Additional entries
SMILES,NPYLR7 agonist,NPYLR7 agonist max-min
Cc1ccc(Sc2ccc(NS(=O)(=O)c3ccc4c(c3)CC(=O)N4C)cc2)c(C)c1,2.2,-1.2
CCn1c(CN2CCN(Cc3ccc(C)o3)C(CCO)C2)nc2ccccc21 (stereo not given),0.8,-0.9
CCOc1ccc(-c2nc(C(N)=O)c3[nH]c(=O)n(-c4ccc(OCC)cc4)c3n2)cc1,-7.6,-9.9
CCc1cc(N2CCN(C(=O)c3ccc(OC(F)(F)F)cc3)CC2)n2ncnc2n1,0.6,-0.5
O=C(c1ccc(C(F)(F)F)cc1)N(Cc1ccccc1)Cc1c(-c2ccccc2)noc1N1CCCC1,3.2,4.7
CCOc1ccc(/C=C2/SC(=Nc3ccccc3Cl)NC2=O)cc1,-7.3,-6.6
C#CCn1c(O)c(N=NC(=O)CNC(=O)c2ccc3c(c2)OCCO3)c2ccccc21,-11.5,-18.5
O=C(NCCn1ncc2c(N3CCN(c4ccc(F)cc4)CC3)ncnc21)c1cc2ccccc2o1,-1.5,-1.0
Cc1cc(C)n(-c2ccc(CNC(=O)C3CC(c4ccccc4)=NO3)cn2)n1 (stereo not given),7.7,2.5
C=CCn1c(SCc2nc3ccccc3c(=O)[nH]2)nc2sc(CC)cc2c1=O,-0.5,-0.6
Cc1cc(C)c(C(=O)N2CCC(C3(c4cccnc4)NC(=O)N(CCc4cccs4)C3=O)CC2)[nH]1 (stereo not given),20.7,10.4
O=C(Cc1nnc2c3ccccc3ncn2c1=O)c1cc2ccccc2o1,13.0,9.8
COc1cc(=O)n(-c2ccccc2)nc1C(=O)N1CCCc2ccccc21,2.9,1.4
O=C(CCc1cnn(-c2ccccc2)c1)N1CCCC(c2ccn[nH]2)C1 (stereo not given),3.2,2.3
CCc1ccc(CNC(=O)c2cc(-c3ccccc3)ns2)s1,0.4,-1.1
CCCn1ccnc1CN1CCCC(c2nn(C)c(=O)n2CC)C1 (stereo not given),-5.8,-5.4
Cc1nc2c(OCc3cccc(Cl)c3)cccn2c1N(C)CC1CC1,10.9,0.6
CCCNC(=O)c1nnn(-c2ccccc2OCC)c1C,3.8,2.3
O=C(CN(CC1CCCO1)C(=O)C12CC3CC(CC(C3)C1)C2)N(Cc1ccc(F)cc1)Cc1ccco1 (stereo not given),-9.8,-5.0
COc1cccc(-c2nc(OCC(C)C)nn2-c2cccc(NC(=O)Nc3ccccc3C)c2)c1,18.5,23.3
CCNc1ncc(CN(C)Cc2cccc3ncccc23)cn1,-2.3,-5.5
NC(=O)C1CCN(C(c2cccc(F)c2)C2Sc3nc(-c4ccco4)nn3C2=O)CC1 (stereo not given),6.9,6.3
O=C(CCn1nnc(-c2ccccc2)n1)N1CCC2(CCNCC2)CC1,6.4,2.0
COc1ccc(CN2CCN(Cn3nnc4ccccc4c3=O)CC2)cc1F,6.0,5.1
CNC(=O)CC(C)N(C)Cc1[nH]c2ccc(F)cc2c1C (stereo not given),0.7,0.5
SMILES,NPYLR7 agonist,NPYLR7 agonist max-min
CN(Cc1ccc(F)c(F)c1)C(=O)CSCC#N,0.3,-1.0
CCOC(=O)CC1CCCCN1C(=O)c1cn(Cc2ccc(OC)cc2)nn1 (stereo not given),3.8,4.5
c1ccc(COC2CCCN(Cc3cc4ccccc4o3)C2)nc1 (stereo not given),-5.1,-4.4
CC(C)C(Nc1ncnc2sc3c(c12)CCCC3)c1nc(C2CC2)no1 (stereo not given),1.5,1.9
COc1cccc(-c2cc(C(=O)N3CCN(C(=O)Nc4ccccc4F)CC3)c(C)n2-c2ccccc2)c1,-0.1,6.9
COc1ccccc1Cc1nnc(C2(c3ccccc3)CCOCC2)o1,4.2,2.7
Cc1csc(CNC(=O)COc2ccc3cc(Br)ccc3c2)n1,-1.9,0.0
CC(NC(=O)c1cccc(OC2CCN(C(=O)C3CC3)CC2)c1)c1ccc(Cl)cc1 (stereo not given),-0.5,-6.4
O=C(NC1CCN(c2ccccc2C(=O)NCC2CCCO2)CC1)c1ccc(F)cc1 (stereo not given),14.8,15.8

# Reformatted: results already given
molecule | NPYLR7 agonist | NPYLR7 agonist max-min
COc1cccc(-c2cc(C(=O)N3CCN(C(=O)Nc4ccccc4F)CC3)c(C)n2-c2ccccc2)c1 | -0.1 | 6.9
CN(Cc1ccc(F)c(F)c1)C(=O)CSCC#N | 0.3 | -1.0

# These rows are one share of the data, so the mix of outcomes need not match the whole.
